# HTT prom inh – inhibits huntingtin promoter activity; HEK293 HTT promoter firefly luciferase reporter (activity 0% = vehicle and -100% = no light), 24 h; AID 1508623; hit rate 0.93% among 48,000; Potency, µM (titrated, usually from 57.5 µM), for inactives: at the highest dose activity change, negative = inhibition, most hits filed as inhibitors; active = well fitted inhibition curve with a large enough effect; inconclusive = small, poorly fitted or top-dose-only effect; inactive = no such curve, though single readings can be large or run the other way; also: nearly all actives have a fitted effect of over 50% in size
#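 Luminescence was read after Dual-Glo reagent and a 10 min room-temperature incubation. Values were normalized to vehicle (0% activity) and zero RLU (-100% activity). Reporter HEK293 cells had been exposed to compounds (up to 57.5 uM final) for 24 h.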
# PMP22 txn prim – modulates PMP22 transcription in S16 Schwann cells; S16 Pmp22-F2sN Schwann cells (luciferase reporters placed in the Pmp22 gene), FLuc/NLuc coincidence luminescence, 24 h; Potency, µM (series often up to 57.5 µM), for inactives: at the highest dose activity change, negative = inhibition, hits mostly inhibitors; hit rate 2% among 43,000; active = clear falling dose curves in both reporters; inconclusive = both reporters move, but less clearly or upward; inactive = either reporter flat; the % is the NLuc reporter signal; also: % is scaled to controls: 0 for no effect and ±100 for the full control effect; some results filed as inactive show a strong effect at the top dose
#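 qHTS, 1536-well. Cells seeded, compounds added by pin tool, 24 h 37C. Nano-Glo reagent 1 (lysis/FLuc), 10 min RT, read; Stop&Glo, 10 min RT, read NLuc.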
# Numbers without * were called inactive; ? = inconclusive; · = no result given; [ ] = dose if it differs, or a comment. Potency is read from the fitted curve at half-maximal effect.
SMILES,HTT prom inh,PMP22 txn prim
COc1cc(Cl)c(C)cc1NC(=O)c1cc2ccc3cccnc3c2[nH]1,-27.0%,?
Cc1cc2c(cc1S(=O)(=O)CCC(=O)N1CCCCC1C)OCC(=O)N2 (stereo unspecified),-3.2%,-8.6%
Oc1c(C(c2ccccc2F)N2CCN(Cc3ccccc3)CC2)sc2nc(-c3ccco3)nn12 (stereo unspecified),-9.1%,0.7%
CC(=O)Nc1ccc(S(=O)(=O)N2CCC(n3c(C)nc4cccnc43)CC2)cc1,-27.3%,2.7%
COc1ccccc1NC(=O)c1c(C)cc(C)nc1SCC(=O)Nc1ccc(C)c(C)c1,?,?
Cc1ccc(NC(=O)c2sc3nc(-c4cc5ccccc5oc4=O)[nH]c(=O)c3c2C)c(C)c1,7.2%,-10.1%
O=C(/C=C/c1ccccc1)N1CCN(Cc2cc(=O)n3nc(-c4ccccc4F)sc3n2)CC1,-11.1%,-21.6%
CC(C)c1cccc(C(C)C)c1NC1=NS(=O)(=O)c2ccccc21,-24.4%,?
COc1ccc(Cn2c(SCc3ccc(C(=O)NC4CCCC4)cc3)nc3cccnc32)cc1,?,?
COc1ccc(C(=O)Oc2ccc(C3NC(=O)c4c(sc5c4CCN(C)C5)N3)cc2OC)cc1 (stereo unspecified),8.9%,?
COC(=O)c1cc(Cl)ccc1OC,-1.8%,·
COc1cc(Cl)c(C)cc1NC(=O)NC1COc2ccccc2C1 (stereo unspecified),-13.8%,-4.3%
Cc1cc(Br)ccc1NC(=O)c1ccc(NS(=O)(=O)c2c(C)noc2C)cc1,-5.2%,12.0%
Cc1cn2cc(C(=O)N(C)CCO)cc(N[C@@H]3CCOc4cccc(C)c43)c2n1,-12.1%,·
Cc1cccc(NC(=O)c2cc3c(=O)n(Cc4cccnc4)ccc3nc2C)c1,-4.8%,-14.8%
COc1ccc(Cl)cc1NC(=O)c1c(NCc2cccnc2)sc2c1CCCC2,-27.4%,-45.4%
CN(C)c1ccc(CNC(=O)C2CCN(S(=O)(=O)c3ccc4[nH]c(=O)ccc4c3)CC2)cc1,-2.7%,-25.4%
Cc1ccc(NC(=O)CCNS(=O)(=O)c2ccc3c(c2)CCCC(=O)N3)cc1,-8.4%,-6.9%
CCSc1ncc(Cl)c(C(=O)N(Cc2ccccc2)c2ccc(OC)cc2)n1,?,?
Cc1c(Nc2ncccc2C(=O)O)cccc1C(F)(F)F,9.2%,·
C[C@@H]1CC=CC=CC=CC=C[C@@H](O[C@@H]2O[C@H](C)[C@@H](O)[C@H](N)[C@H]2O)C[C@@H]2O[C@](O)(C[C@@H](O)C[C@@H]3O[C@@H]3C=CC(=O)O1)C[C@H](O)[C@@H]2C(=O)O,?,·
CC1=C(c2ccc(C)cc2)S(=O)(=O)N(Cc2ccc(C(=O)NCc3cccc(C)c3)cc2)C1=O,?,-18.6%
Cc1ccc(SCC(=O)Nc2ccc3oc(-c4ccccc4C)nc3c2)cc1,61.8%[activator],-0.5%
O=C(CCS(=O)(=O)c1nc(-c2cccs2)cc(C(F)(F)F)n1)Nc1ccc(OC(F)(F)F)cc1,-3.1%,?
Cc1ccc2c(c1)c1c3n2CCN(C(=O)c2ccc(C(F)(F)F)cc2)C3CCC1 (stereo unspecified),-6.6%,-17.0%
O=c1c2c(-c3ccc(Cl)cc3)ccnc2[nH]n1-c1ccccc1,-3.9%,33.2%
CCCCN1CC(c2nc3ccccc3n2CCCCOc2ccc(C)c(C)c2)CC1=O (stereo unspecified),?,?
NC(=O)CC[C@@H]1NC(=O)[C@H](Cc2ccccc2)NC(=O)[C@H](Cc2ccc(O)cc2)NC(=O)CCSSC[C@@H](C(=O)N2CCC[C@H]2C(=O)N[C@@H](CCCN=C(N)N)C(=O)NCC(N)=O)NC(=O)[C@H](CC(N)=O)NC1=O,6.7%,·
O=C(CSc1nnc(-c2ccccc2Cl)o1)N1CCCc2ccccc21,?,?
COc1cccc(N2C(=O)CSC23C(=O)N(CC(=O)Nc2cccc(Cl)c2)c2ccccc23)c1 (stereo unspecified),-25.7%,?
O=C(Nc1cc(Cl)cc(Cl)c1)c1ccc2c(c1)N(Cc1cccc(Cl)c1)C(=O)c1ccccc1S2=O (stereo unspecified),16.7%,?
CCc1cccc(C)c1NC(=O)C1CCCN(S(=O)(=O)c2cccc3nsnc23)C1 (stereo unspecified),-20.2%,2.4%
Cc1cccc(NC(=O)CCn2cnnn2)c1C,12.9%,-4.1%
Cc1ccc2nc3c(cc(C#N)c(=O)n3-c3nnc(SCc4ccccc4)s3)c(=O)n2c1,12.4%,?
O=C(CCCc1ccccc1)NC1CC(=O)N(c2ccc(Cl)cc2)C1 (stereo unspecified),-3.5%,-18.3%
Cc1ccc(C)c(Cn2c(=O)n(Cc3ccccc3)c(=O)c3c2c2cc(C)ccc2n3C)c1,15.9%,-12.5%
O=C(NCC(c1cccnc1)N1CCN(Cc2ccccc2)CC1)C(=O)Nc1cccc(Cl)c1 (stereo unspecified),-20.5%,?
Cc1ccc(S(=O)(=O)c2cn(C)c3cc(N4CCCC4)c(F)cc3c2=O)c(C)c1,-16.4%,9.0%
Cc1ccc(C(=O)Nc2nc(-c3ccccc3)ns2)cc1,0.7%,7.2%
CC(=O)c1ccc(NC(=O)c2nc(-c3ccc(C)cc3)n3c2CCCCC3)cc1,-29.0%,?
O=S(=O)(N=Cc1c(O)ccc2ccccc12)c1cccs1,13.2%,·
COc1ccc(NC(=O)N(CCC(C)C)C(C)c2cccs2)c(OC)c1 (stereo unspecified),-23.8%,-11.5%
Cc1cc(C)cc(NC(=O)C2CCN(S(=O)(=O)c3c(C)noc3/C=C/c3ccco3)CC2)c1,-9.2%,?
COc1ccc(Nc2oc(/C=C/c3ccc(F)cc3)nc2C#N)cc1,15.0%,-45.7%
COC(=O)c1ccc(NC(=O)CC2C(=O)N(c3ccccc3)C(=O)N2C2CCCC2)cc1 (stereo unspecified),-22.8%,31.2%
Cc1ccc(Cn2nnc3sc4c(c3c2=O)CCC(C)C4)cc1 (stereo unspecified),-11.6%,-15.5%
CCC(=O)N1CCc2cc(Br)cc(S(=O)(=O)NCCc3cccc(C)c3)c21,-23.3%,-38.0%
CC(C)c1ccc(NS(=O)(=O)c2ccc3[nH]cc(C(=O)NC4CCCCC4)c(=O)c3c2)cc1,14.9%,-35.5%
Cc1ccc([N+](=O)[O-])cc1S(=O)(=O)N1CCn2cccc2C1c1ccccc1F (stereo unspecified),-3.2%,-7.0%
COc1cc(OC)c(NC(=O)CCCn2nc(C)c3c(C)n(-c4ccccc4)nc3c2=O)cc1Cl,?,?
CCOc1ccc(C(=O)Nc2ccc(C(=O)OCc3cc(=O)n4c(C)csc4n3)cc2)cc1,?,?
COc1cccc(C(=O)NCC(c2ccc(N(C)C)cc2)N2CCOCC2)c1OC (stereo unspecified),12.6%,-13.3%
CC(C)(C)OC(=O)N1CCC(c2c(C(=O)Nc3ccc4c(c3)OCCO4)cnn2-c2ccccc2)CC1,?,-17.3%
COc1ccc(C2=NC(c3ccccc3)=Nc3ccc(C)cc3N2)cc1,-13.8%,-24.7%
Fc1ccc(-n2cc(-c3ccccc3)c3c(NCCc4ccccc4)ncnc32)cc1,-25.0%,-4.7%
CCOc1ccc(NC(=O)N2CCOc3ccccc32)cc1,89.4%[activator],-6.7%
COC(=O)c1ccc(NC(=O)c2nn(C)c3c2COc2ccccc2-3)cc1,11.6%,-2.1%
COc1ccc(OC)c(NC(=O)c2cccc3c2C(=O)N(C2CCCCC2)C3)c1,-19.4%,?
O=C(O)CCC(=O)N1CCc2cc(S(=O)(=O)NCc3ccc(F)cc3)ccc21,-20.0%,-3.0%
Cc1cc(C)n2nc(CNS(=O)(=O)c3ccccc3)nc2n1,5.0%,-2.0%

# (list continues)
SMILES,HTT prom inh,PMP22 txn prim
Cc1ccccc1Cn1cc(CCC(=O)NCc2cccc(Br)c2)c2ccccc21,?,-9.4%
COc1ccc(CNC(=O)c2cc3c(-c4ccccc4F)nn(C)c3s2)cc1,?,?
CCCCN1C(=O)C(O)(c2c(C)[nH]c3ccccc23)c2ccccc21 (stereo unspecified),-30.5%,18.9µM*
CCOc1ccccc1NC(=O)Cn1c(=O)oc2cc(S(=O)(=O)NCc3ccccc3)ccc21,-29.1%,-27.8%
CCc1ccc(-c2ccc3nnc(SCC(=O)Nc4cccc(C(C)=O)c4)n3n2)cc1,-20.4%,48.5%
Cc1ccccc1CCNC(=O)c1cc2cc(S(=O)(=O)N3CCCCC3)ccc2n1C,?,-41.1%
N[C@H]1C(O)O[C@H](CO)[C@@H](O)[C@@H]1O (stereo partly specified),9.2%,·
CCOc1ccc2oc(=O)cc(CN3CCN(Cc4ccc(F)cc4)CC3)c2c1,-17.5%,14.1µM*
Cc1ccc(C(=O)COC(=O)CCC(=O)Nc2ccc(Oc3cc(C)ccc3C(C)C)cc2)cc1,?,6.5%
Cc1nc2c(c(C)nn2C(C)(C)C)c(C)c1CCC(=O)Nc1ccc(Br)cc1Br,-0.6%,-4.6%
O=C(Nc1ccc(OCc2cc(=O)n3c4c(sc3n2)CCCC4)cc1)c1ccc(F)cc1,-19.6%,0.2%
Cc1ccc(C)c(N2CCN(c3nc4ccc(Cl)cc4n4cnnc34)CC2)c1,-22.0%,?
COc1ccc(OC)c(CCNC(=O)CCn2c(=O)c3cccn3c3cccnc32)c1,14.4%,-14.7%
CCN(CC)S(=O)(=O)c1ccc2[nH]cc(C(=O)NCCc3ccccc3)c(=O)c2c1,?,?
COc1ccc(-c2cc(C(=O)Nc3cccc(O)c3)on2)cc1OC,28.3%,?
O=c1c(-c2cc(-c3ccc(F)cc3)nc3c2COc2ccc(Cl)cc2-3)coc2ccc(F)cc12,-1.6%,-1.5%
CCCOc1ccc(Nc2cc(C)nc(C)n2)cc1,25.0%,?
CCN(c1ccc(OC)cc1)S(=O)(=O)c1ccc2[nH]c3c(c2c1)CCCCC3,?,?
CCc1ccccc1NC(=O)Cc1c(C(=O)O)[nH]c2ccc(Cl)cc12,-9.4%,-6.7%
CCN(CC)S(=O)(=O)c1ccc2c(c1)N(CC(=O)Nc1ccc(Cl)cc1)C(=O)C1CCCN21 (stereo unspecified),-16.0%,-1.3%
Cc1cccc(N2CCN(C(c3ccc(F)cc3)c3nnc(-c4ccccc4)o3)CC2)c1C (stereo unspecified),-22.8%,?
COc1ccc(/C(C)=C/C(=O)O)c(OC)c1,3.6%,·
Cc1nc(-c2ccc(C)c(S(=O)(=O)N3CCC(C(=O)Nc4ccc(Cl)cc4)CC3)c2)no1,?,?
COc1ccccc1-c1nc(SCC(=O)c2ccccc2)n[nH]1,6.8%,-19.3%
CCOc1ccc(-c2cc3nc(C4CCN(C(=O)OC(C)(C)C)CC4)c(C(=O)Nc4ccc(C)cc4Cl)cn3n2)cc1,-19.6%,-30.5%
COc1ccc(N(Cc2cccs2)C(=O)c2ccc(OC)c(Cl)c2)cc1,?,-7.3%
CC1CCCN(S(=O)(=O)c2ccc(NC(=O)c3nc(SC(C)C)ncc3Cl)cc2)C1 (stereo unspecified),?,?
COc1cccc(N2CCN(C(=O)c3cnn(-c4ccccc4Cl)c3C3CCN(C(=O)OC(C)(C)C)CC3)CC2)c1,?,-11.1%
CCOc1ccc(CC(=O)NC2CC(=O)N(c3cccc(F)c3)C2)cc1 (stereo unspecified),0.8%,0.6%
CC(=O)Nc1ccc(C(=O)Nc2ccccc2N)cc1,161.3%[activator],·
COc1cc(OC)c(NC(=O)c2cnc(N3CCCC3)nc2C)cc1Cl,-12.0%,22.9%
COc1ccc(-c2cc(C(C)=O)c(C)n2CCC(=O)Nc2ccc(C(F)(F)F)cc2)cc1,?,-27.7%
Cc1ccc(Cn2c(CN3CCC(C(=O)NCCc4ccccc4)CC3)cc3ccccc32)cc1,-20.6%,?
COc1ccc(-c2nc3scc(CCNS(=O)(=O)c4c(C)noc4C)n3n2)cc1OC,-6.3%,-10.1%
CCc1ccccc1N(C)C(=O)c1cnc(N2CCOCC2)c2ccccc12,-5.3%,-7.1%
CCCCc1nc2ccccc2n1CC(=O)N(COCC)c1c(C)cccc1CC,-16.7%,?
CCOC(=O)c1c(C)[nH]c(C)c1S(=O)(=O)N1CCC(C(=O)NCc2ccc(N(C)C)cc2)CC1,-7.7%,63.2%
CCc1ccc(Oc2nc3c(C)cccn3c(=O)c2/C=C(\C#N)c2nc3ccccc3[nH]2)cc1,-10.8%,-15.9%

# Another view of some results above.
SMILES	HTT prom inh	PMP22 txn prim
CCN(CC)S(=O)(=O)c1ccc2[nH]cc(C(=O)NCCc3ccccc3)c(=O)c2c1	?	?
Oc1c(C(c2ccccc2F)N2CCN(Cc3ccccc3)CC2)sc2nc(-c3ccco3)nn12 (stereo unspecified)	-9.1%	0.7%
CCSc1ncc(Cl)c(C(=O)N(Cc2ccccc2)c2ccc(OC)cc2)n1	?	?
Cc1ccccc1Cn1cc(CCC(=O)NCc2cccc(Br)c2)c2ccccc21	?	-9.4%
COc1ccc(CNC(=O)c2cc3c(-c4ccccc4F)nn(C)c3s2)cc1	?	?
COc1ccc(Cn2c(SCc3ccc(C(=O)NC4CCCC4)cc3)nc3cccnc32)cc1	?	?

# Rows are unselected. Share with any hit: about 2.7%.
